Bead autofluor: flagged as autofluorescent in microsphere protease counterscreen | compound autofluorescence counterscreen, microsphere flow cytometry; stronger effect = higher value | fluorescence intensity (concentration not given with the values) | 3.1% of 360,000 active | AID 624483;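 active means at least 3 SD above the mean of all compounds, about 16000 in these data; inconclusive means too few beads counted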;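 further: 100 nL of 1 mM stock went into each well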
ugtP null kill: growth inhibition of ugtP-null S. aureus, primary screen, RN4220 ugtP deletion, OD600. 16 h; some inactives read as strong as hits. growth inhibition, % (no concentration beside the values). 0.54% of 330,000 active;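 active means z-score under -3 and OD600 up to 0.15 on both plates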;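 further: plate controls were untreated wells for no effect and antibiotic for full effect; wells of about 80 µL received 100 nL stock; the first replicate is given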
PrP 5UTR inh: inhibition of PrP 5' UTR reporter expression. cell-based PrP 5' UTR mRNA reporter, plate reader. inhibition, % (concentration not given with the values). 0.35% of 340,000 active;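 active means every replicate at 50% or more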;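 further: 0 = median of the neutral control wells; tested in H4 reporter cells; numbers are from one replicate; inactives centre near -14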
BJeLR lethal: MLPCN primary cell-based screen for lethality selective to Ras in HRASV12 cells | 0.17% of 300,000 active | inhibition, % (test concentration not listed) | BJeLR (HRASV12) viability, CellTiter-Glo ATP luminescence, 48 h; reference of the scale not given here;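 active means replicate mean above 50%; inconclusive means above 50% but judged a plate artefact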;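 further: 50 nL library stock added to about 25 µL; numbers are from one replicate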
Mtb hypoxia rep: PubChem AID 1159583 | M. tuberculosis hypoxia-regulated fluorescent reporter, fluorescence | fluorescence inhibition, % (test concentration not listed) | 0.1% of 300,000 active;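 active means 35 to 45% if threefold the growth effect, above 45% if 1.5-fold the growth effect; inactive means the rest, general growth blockers included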;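 further: wells of about 50 µL received 100 nL stock; 0% = vehicle wells and 100% = reference inhibitor wells; whole bacteria with a GFP reporter of the hypoxia response; strong numbers were not always called active; many hits fall short of the cut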
RN4220 kill: growth inhibition of S. aureus RN4220, primary screen, OD600; AID 1259311, 2017; 0.33% of 330,000 active; inhibition, % (concentration not given with the values); 16 h;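 active means z-score of -3 or lower and OD600 up to 0.18 on both plates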;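 further: plate controls were untreated cells for no effect and reference antibiotic for full effect; stock transfer was 100 nL into about 80 µL; one replicate is shown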
Mtb hypoxia rep growth: recorded beside Mtb hypoxia rep, whose call it bears; growth inhibition, %; measured here: M. tuberculosis growth (absorbance);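 0% = vehicle and 100% = reference antibiotic; read after six days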
Active calls of the source: *; ? = inconclusive; nt = no result given.

SMILES	Bead autofluor	ugtP null kill	PrP 5UTR inh	BJeLR lethal	Mtb hypoxia rep	Mtb hypoxia rep growth	RN4220 kill
Cc1oc2c(cc(NS(=O)(=O)c3ccc(Cl)cc3)c3ccccc32)c1C(=O)O	5172	-9.1	-16.5	nt	-3.1	-12.6	16.2
Cc1ccc(C)c(C(=O)CN2C(=O)CCC2=O)c1	2191	1.1	1.8	-4.5	nt	nt	2.2
Cc1ncoc1C(=O)Nc1ncc([N+](=O)[O-])s1	3322	6.8	-44.3	12.0	14.8	10.3	9.1
COc1ccc(S(=O)(=O)Cc2ccc(C(=O)N3CCN(c4ccc(Cl)cc4)CC3)o2)cc1	5459	1.8	2.5	2.8	nt	nt	-1.4
COc1ccc(S(=O)(=O)Nc2nc3ccccc3nc2Nc2ccc3c(c2)OCO3)cc1	nt	-6.3	nt	1.8	5.5	1.5	4.8
O=C(O/N=C1/CCCc2occc21)c1ccc(F)cc1	4734	nt	-8.3	-0.3	nt	nt	nt
CCOC(=O)C1CCN(C(=O)CCc2ccc(S(=O)(=O)NCC(C)C)cc2)CC1	3798	9.7	-15.3	3.4	2.9	9.5	4.7
CN(CCOc1ccc(-c2ccn(S(=O)(=O)c3c(Cl)cccc3Cl)n2)cc1)c1ccccn1	4463	-1.9	-16.2	0.3	4.6	11.4	2.2
COc1ccccc1NC(=O)NC1CCCCCCC1	5809	-0.6	-5.5	nt	3.1	-1.1	2.8
O=[N+]([O-])c1ccc(O)c(C=Nc2ccc3c(c2)OCO3)c1	4682	53.5	-14.3	-11.3	16.7	18.3	77.7
Cc1cc2c(c(=O)n1Cc1ccccn1)C(C(C)C)C(C#N)=C(N)O2 (stereo unspecified)	9809	5.3	-34.2	-7.0	14.3	2.7	9.9
COc1ccc(CCNC(=O)C2CCN(C(=O)c3ccc(F)cc3)CC2)cc1	3195	2.9	18.0	-15.3	20.4	10.4	3.6
Cc1ccc(CNC(=O)c2ccc(NC(=O)CCS(=O)(=O)c3cccs3)cc2)cc1	3465	1.6	-23.0	5.3	8.4	-3.1	4.6
CCn1cc(C(=O)N[C@@H](CCSC)C(=O)NCCCOC)c(=O)c2cc3c(cc21)OCO3	3292	0.4	-21.7	-4.0	-4.9	18.0	2.5
Cc1ccc(C(=O)N/C(=C\c2ccco2)C(=O)NCc2cccnc2)cc1	2132	3.3	-4.7	2.2	-6.3	-8.1	-0.2
Clc1ccc(-n2nnnc2-c2ccno2)cc1	6043	-1.4	nt	-3.0	11.7	1.2	4.3
Cc1ccc(NC(=S)N2CCN(S(=O)(=O)c3c(F)cccc3F)CC2)cc1C	4676	6.4	-22.2	-1.4	12.6	6.9	2.7
Cn1c(SCC(=O)N2CCc3ccccc3C2)nnc1-c1cccs1	9125	8.4	-20.8	-2.6	1.8	6.4	2.8
CC(C)CNc1oc(-c2ccc(F)cc2)nc1C#N	5568	-6.9	-18.1	-0.4	nt	nt	-4.3
CCOC(=O)CNC(=O)C1(c2ccccc2)CCCC1	16511*	11.6	8.6	-3.9	-0.5	-2.7	6.9
COc1ccc(NC2=NCC(=O)N2c2ccccc2F)c(OC)c1	5091	2.1	9.3	1.0	nt	nt	0.5
CN(C)c1nc(Oc2ccc(N)cc2)nc(N(C)C)n1	3117	5.4	7.1	2.6	5.2	4.8	3.6
Cc1ccc(CN(C(=O)c2cc(=O)c3cc(Cl)c(C)cc3o2)C2CCS(=O)(=O)C2)cc1 (stereo unspecified)	10031	0.8	-9.3	0.2	2.7	0.5	3.0
O=S(=O)(c1ccc(F)cc1)N1CCCC(CO)C1 (stereo unspecified)	2246	nt	6.7	-6.9	nt	nt	nt
O=C1c2ccccc2-c2cccnc21	2831	7.4	-32.1	-1.7	-5.5	2.7	3.3
COc1cc(CN2CCCC(C(=O)N3CCc4ccccc4C3)C2)cc(OC)c1OC (stereo unspecified)	5836	0.4	-9.1	4.2	-0.6	-0.4	1.1
COc1cccc(C2NC(=O)CCC2[N+](=O)[O-])c1OC (stereo unspecified)	3651	4.0	-14.9	-4.9	5.3	3.7	3.2
CC1CCCC(C)N1CCCNC(=O)CN1C(=O)COc2ccc(S(=O)(=O)N3CCOCC3)cc21 (stereo unspecified)	6109	10.0	-8.9	-3.3	7.3	1.5	0.3
Cc1ccc(C=Nc2cccnc2N)cc1	2651	nt	-40.9	3.4	nt	nt	nt
CCC(C)C1NC(=O)c2cc([N+](=O)[O-])cc(F)c2OCCC(C(N)=O)NC(=O)C(CCCCN)NC1=O (stereo unspecified)	nt	4.1	nt	nt	9.9	13.3	3.7
CCn1nc(C(=O)OCC(=O)c2ccc3c(c2)OCCO3)c2ccccc2c1=O	5092	11.1	-27.5	-1.0	nt	nt	4.6
CN(C[C@H](Cc1ccccc1)N(C[C@@H](CC1CCCCC1)N(CCc1ccccc1)N=O)N=O)N=O	4088	nt	-23.2	-11.3	nt	nt	nt
COc1nc(C)c2cc(C)oc2n1	2620	9.8	-7.4	0.8	8.2	5.3	3.7
CCOc1ccc(S(=O)(=O)N2CCC(C(=O)N3CCOCC3)CC2)cc1C	4065	6.9	-12.9	2.7	-7.1	5.6	1.0
Cc1ccc(-c2nc(Nc3ccc(N4CCOCC4)cc3)c3ccccc3n2)cc1	4060	nt	-25.5	16.9	nt	nt	nt
Cc1cc2c(sc3ccccc32)c(C)n1	3087	0.3	-25.4	-0.1	0.8	-10.2	2.7
O=C(O)/C=C/C(=O)NNC(=O)c1ccc(Cl)cc1Cl	3243	11.1	-31.8	-5.1	14.2	9.8	2.2
CCCC(=O)Nc1ccc2oc(-c3ccncc3)nc2c1	16375*	5.4	-5.6	-2.1	5.3	-2.7	3.7
CC(=O)CC(C)=NCCN=C(C)CC(C)=O	10243	1.6	-39.9	4.5	1.7	9.0	4.5
Cc1ccc(NC(=S)NCCCN2CCOCC2)cc1	2549	-0.2	-15.1	10.7	-9.0	4.9	-2.5
CCOC(=O)C1=C(CC)OC(N)=C(C#N)C1c1ccc(NC(C)=O)cc1 (stereo unspecified)	1955	6.3	-17.7	8.0	-6.5	8.3	8.3
O=C(N/N=C/C=C\c1cccc([N+](=O)[O-])c1)c1ccccn1	2366	nt	-12.8	6.4	nt	nt	nt
CC(=O)N1c2ccc(S(=O)(=O)NCCC(=O)Nc3ccc(F)cc3)cc2CC1C (stereo unspecified)	5321	3.0	-10.8	2.7	5.6	3.4	1.0
COc1cc(/C=C(/NC(=O)c2ccccc2)C(=O)Nc2ccc(O)cc2)c([N+](=O)[O-])cc1OC	2648	4.8	-35.5	-12.6	-2.7	-6.1	-1.1
CC(C)C(=O)OCCN=C1NS(=O)(=O)c2ccccc21	6367	6.0	-10.6	-1.5	4.4	-4.3	1.5
Cc1cccn2c(Nc3ccccc3)c(-c3ccccn3)nc12	4310	7.7	-21.1	4.5	-2.0	-2.2	-0.3
CC(C)C(C(=O)Nc1ccc2c(c1)OCCOCCOCCOCCO2)N1C(=O)c2ccccc2C1=O (stereo unspecified)	2021	-3.2	-9.9	7.2	-9.3	-0.5	1.4
O=C(NCc1ccccc1Cl)c1ccc2c(=O)n(CCCN3CCCC3=O)c(=S)[nH]c2c1	15521	13.7	-0.6	3.2	7.9	7.1	4.2
CCNc1nc(OC)nc(N(OC)S(=O)(=O)c2ccc(C)cc2)n1	3430	5.9	-27.3	-2.8	9.3	4.7	5.4
Cc1cc(OCC(O)CN(CCO)CCO)ccc1Cl (stereo unspecified)	2977	8.5	-19.9	5.3	nt	nt	-1.5
CCOC(=O)/C(C#N)=C/Nc1ccsc1C(C)=O	4334	4.3	-23.6	0.9	-15.0	-0.3	4.1
COc1cccc(CN(C)C(=O)c2cccc(S(=O)(=O)Nc3cccc(C)c3)c2)c1OC	?	5.3	-41.6	nt	13.2	1.9	4.2
COc1ccc(OCC(=O)N2CCOCC2)cc1	7448	8.2	-32.0	-7.5	3.8	-1.5	4.7
COCCNC(=O)C(=O)Nc1ccc(Cl)cc1C	4238	2.9	-24.8	-3.4	-2.6	19.5	2.0
OC(c1nc2ccc(F)cc2[nH]1)C(O)c1nc2ccc(F)cc2[nH]1 (stereo unspecified)	3788	0.7	nt	1.8	6.1	-0.6	-1.9
COc1cc(OC)cc(C(=O)NNC(=S)NCc2ccco2)c1	4360	nt	-23.5	2.2	nt	nt	nt
O=S1(=O)N=C(N2CCN(Cc3ccccc3)CC2)c2ccccc21	2484	8.9	-5.4	-12.3	nt	nt	-3.2
CSCCC1NC(=S)N(Cc2ccccc2)C1=O (stereo unspecified)	3742	7.2	nt	-6.5	11.0	-5.4	0.7
COc1ccc(Nc2nc(N)nc(CN3CCC(Cc4ccccc4)CC3)n2)cc1	6609	-8.7	-35.3	9.3	3.4	12.2	-13.9
CC1=CC(=O)C(C(C)=Nc2ccccc2[N+](=O)[O-])C(=O)O1 (stereo unspecified)	3580	-1.9	-32.4	nt	5.2	3.8	2.7
The listing continues.
SMILES	Bead autofluor	ugtP null kill	PrP 5UTR inh	BJeLR lethal	Mtb hypoxia rep	Mtb hypoxia rep growth	RN4220 kill
COc1cccc(CNC(=O)c2nnn(CC(=O)Nc3ccc(Br)cc3)c2N)c1	5271	-2.0	-9.3	12.6	-0.4	-12.5	-0.9
CCOC(=O)CSC1=C(C#N)C(=O)NC(c2ccc(OC)cc2)S1 (stereo unspecified)	8381	-0.2	-18.1	4.7	7.7	1.9	2.5
Cc1ccc(C)c(C(=O)NC(C)CCc2ccccc2)c1 (stereo unspecified)	3246	11.0	-8.8	6.6	8.0	5.9	7.8
CN1CCN(c2ccc(S(=O)(=O)N3CCCCC3)cc2NC(=O)COc2cccc(Cl)c2)CC1	8311	3.8	-5.9	0.1	5.8	-2.5	4.0
COc1cc(NC(=O)Cn2cnc(S(=O)(=O)N3CCC(C)CC3)c2)cc(OC)c1OC	6009	0.1	-5.2	-2.6	12.1	6.6	2.8
CN(C)S(=O)(=O)c1cccc(NC(=O)COc2cccc(C#N)c2)c1	8812	-4.8	-32.4	4.3	5.5	3.3	1.9
CC(=NNC(=O)c1ccn(C)n1)c1ccc(NC(=O)C2CCC2)cc1	nt	-4.4	nt	nt	10.8	4.9	2.4
CC1CCCC(C)N1C(=O)COC(=O)CSc1ccc(C(N)=O)cc1[N+](=O)[O-] (stereo unspecified)	21171*	5.7	4.4	-7.5	17.2	5.9	5.1
CCc1nn(C(C)C(=O)NCCN2CCN(c3cccc(C)c3C)CC2)c(=O)c2cc3occc3n12 (stereo unspecified)	3043	-2.9	-11.8	-13.5	14.3	6.1	-9.4
O=C1Nc2ccccc2N(O)N1c1cc(-c2ccc(Cl)cc2)[nH]n1	2195	-8.2	-8.7	1.0	-10.4	15.7	1.6
CC(=O)N1N=C(c2cccc(Cl)c2)OC1c1cccc([N+](=O)[O-])c1 (stereo unspecified)	2403	-13.4	-2.6	-3.3	-0.8	0.1	-1.5
O=C(CNC(=O)C1CCCCC1)Nc1ccc(Cl)cc1	2600	12.1	-24.5	-3.3	nt	nt	-3.8
CCCC1C(=NO)CC(c2ccccc2)NC1c1ccccc1 (stereo unspecified)	nt	0.2	nt	nt	9.6	18.8	1.1
COc1ccc(N2CCN(CCCNC(=O)Nc3ccccc3)CC2)cc1	4054	0.7	-8.0	-3.9	18.1	22.8	5.1
Cc1cc(/C=C(\C#N)C(=O)NCc2cccs2)c(C)n1-c1ccccc1F	4287	-0.4	-70.7	8.8	12.0	6.3	-10.2
Cc1ccc(C2(C)NC(=O)N(CC(=O)Nc3nc(-c4ccccn4)cs3)C2=O)cc1 (stereo unspecified)	?	-1.2	12.9	14.0	10.5	1.5	-1.4
CC(=O)c1ccc(NC(=O)NC2CC(=O)N(c3ccc4c(c3)OCCO4)C2)cc1 (stereo unspecified)	6741	9.9	-19.9	-4.4	2.5	-6.4	-2.3
